ClpP mod: qHTS Assay for Activators of ClpP; purified B. subtilis ClpP, FRET peptide cleavage, 20 min; Potency, µM (series often up to 57.5 µM), for the others: at the highest dose activity change, negative = active; 340,000 tested, 1.9% active; active = well fitted falling curve with a large enough effect; inconclusive = small, poorly fitted or top-dose-only effect; inactive = no such curve, though single readings can be large or run the other way; further: potency means the concentration at half of the fitted maximal effect; the source files actives as falling curves though it sought activators and does not explain the sign; nearly all actives have a fitted effect of over 65% in size; many hits overshoot -100%
Target sequence (P80244 whole entry, looked up): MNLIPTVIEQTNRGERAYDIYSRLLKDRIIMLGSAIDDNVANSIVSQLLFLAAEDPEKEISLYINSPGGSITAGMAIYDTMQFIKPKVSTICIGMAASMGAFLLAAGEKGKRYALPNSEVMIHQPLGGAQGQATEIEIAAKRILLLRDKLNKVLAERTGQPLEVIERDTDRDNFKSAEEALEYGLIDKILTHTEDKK
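FRET quenching reversal measured ClpP activation: 10 microg/mL B. subtilis ClpP at pH 8 with the FRET-FV decapeptide, read at 430 nm after 320 nm excitation. The 20-min minus 0-min signal was scaled between DMSO/no-enzyme wells and ADEP (5.8 microM final).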
TRPML1 inh: blocks the human TRPML1 channel. Q9GZU1. TRPML1-inducible cells, Ca2+ dye fluorescence, FDSS; hits give low values; inhibition of EC80 agonist-evoked calcium signal. activity change, negative = inhibition, % (test concentration not listed). 390,000 tested, 0.02% active; in the data active means activity change below about -50%; inconclusive means about -30% to -50%; inactive means above about -30%;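 further: stimulus is agonist 54-4 at its EC80 concentration; on the % scale 0 is the no-effect control and ±100 the full control effect; compound concentration not given in the record; the text of the record puts the active cut at -80%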
Target sequence (Q9GZU1 whole entry, looked up): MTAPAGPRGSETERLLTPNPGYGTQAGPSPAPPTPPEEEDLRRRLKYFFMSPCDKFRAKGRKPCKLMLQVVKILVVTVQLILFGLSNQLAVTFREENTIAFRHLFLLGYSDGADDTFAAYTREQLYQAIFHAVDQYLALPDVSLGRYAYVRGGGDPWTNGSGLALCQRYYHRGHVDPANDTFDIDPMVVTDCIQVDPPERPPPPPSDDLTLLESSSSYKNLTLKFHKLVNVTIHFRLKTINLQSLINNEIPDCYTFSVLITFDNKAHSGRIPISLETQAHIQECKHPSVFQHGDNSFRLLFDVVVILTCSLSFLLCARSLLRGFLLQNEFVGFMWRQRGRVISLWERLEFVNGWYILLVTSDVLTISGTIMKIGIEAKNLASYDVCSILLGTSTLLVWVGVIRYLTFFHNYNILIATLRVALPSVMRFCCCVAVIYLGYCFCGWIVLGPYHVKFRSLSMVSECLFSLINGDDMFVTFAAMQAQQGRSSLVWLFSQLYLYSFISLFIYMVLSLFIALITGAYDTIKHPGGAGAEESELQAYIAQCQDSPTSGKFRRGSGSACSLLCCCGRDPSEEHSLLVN
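Calcium fluorescence in TRPML1-DL cells induced overnight with Tet: a 110 s read after compound pin addition, then a 110 s antagonist read after challenge with 54-4 at 4 uM final (EC80).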
gsp ag: agonists of gsp mutant (McCune-Albright syndrome). 340,000 tested, 0.13% active. gsp mutant cells, cAMP HTRF, 30 min; control for the full effect not named in the record. Potency, µM (titrated, usually from 76.9 µM), without a hit: at the top dose activation (cAMP increase), usual class: activators; active = well fitted activation curve with a large enough effect; inconclusive = small, poorly fitted or top-dose-only effect, or another doubt; inactive = no such curve, though single readings can be large or run the other way; cell line not stated here;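 further: phosphodiesterase inhibitor Ro 20-1724 added with compounds to block cAMP breakdown; potency means the concentration at half of the fitted maximal effect; nearly all actives have a fitted effect of over 60% in size; about a fifth of the inactives were tested at one dose only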
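Cells in DMEM/10% FBS with G418 were pretreated with compounds in DMSO plus […] (300 uM stock) for 30 min at 37C. cAMP was measured by HTRF (cAMP-d2 plus anti-cAMP antibody-K) after 30 min at room temperature.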
TRPV1 potentiator: potentiators of human vanilloid receptor 1 (TRPV1) | Q8NER1 | TRPV1-expressing cells, Fluo-8 calcium influx, capsaicin EC20 potentiation; host cell line not named in the record; control for the full effect not named in the record | potentiation, % at 8.33 µM | 320,000 tested, 0.02% active | AID 540277; active means potentiation above 80%; inconclusive means 30% to 80%; inactive means below 30%; further: 0% is about no effect
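Cells expressing TRPV1 were dye-loaded with Fluo-8 and read kinetically: 10 s baseline, 3 min after compound (agonist portion), then 2 min after EC20 capsaicin (allosteric enhancer portion). Calcium-bound dye fluorescence at 480/520 nm.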
Menin-MLL FL inh: inhibitors of human menin-MLL interaction, wild-type MLL peptide; Fluorescence polarization, fluorescein-MLL peptide displacement from menin; FP activity change, % at 61.4 µM; 290,000 tested, under 10 active; inconclusive = falling polarisation curve, or a change in total fluorescence; inactive = total fluorescence flat and polarisation flat or rising; no compound was filed as active; the % refers to the polarisation; negative = inhibition;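 further: % of control where 0% means no effect; inhibitors lower the polarisation; unlabelled MLL peptide was the positive control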
Sfp inh: blocks B. subtilis Sfp PPTase activity; Q9F4F7; Biochemical Sfp PPTase activity, qHTS; Potency, µM, inactives show max response, negative = inhibition, hits mostly inhibitors; 310,000 tested, 3.5% active; active means well fitted inhibition curve with a large enough effect; inconclusive means small, poorly fitted or top-dose-only effect, or another doubt; inactive means no such curve, though single readings can be large or run the other way;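 further: the enzyme is Sfp with the accession as filed and its product quenches rhodamine fluorescence; potency means the concentration at half of the fitted maximal effect; 0% = enzyme reaction without inhibitor and -100% = no enzyme wells; top concentration of the series not given in the record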
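Compounds were incubated with enzyme (final 15 nM) for 15 min at room temperature before substrate addition started the reaction. Fluorescence at 525 nm excitation, 598 nm emission was recorded immediately and after 30 minutes.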
gsp antag: gsp mutant antagonism. gsp-mutant cells, cAMP HTRF, 30 min; control for the full effect not named in the record. Potency, µM (highest dose often 76.9 µM), without a hit: at the top dose activity change, negative = inhibition, most hits filed as inhibitors. 340,000 tested, 0.4% active. AID 624288; active = falling curve of any shape with a large fitted effect; inconclusive = falling curve, mostly with a smaller effect; inactive = flat or rising curve; cell line not stated here;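 further: intracellular cAMP measured with PDE inhibitor Ro 20-1724 present during compound exposure; potency means the concentration at half of the fitted maximal effect; on the % scale 0 is the no-effect control and ±100 the full control effect; nearly all actives have a fitted effect of over 65% in size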
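HTRF cAMP measurement after 30 min RT detection following 30 min, 37C compound treatment alongside […] (added as 300 uM solution) in G418-selected cells seeded at 2000/well and grown 16–24 h.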
Starred values were filed as active, the others as inactive; [ ] = remark or other dose.

How did COc1c(Cl)cc(Cl)cc1C(=O)n1nc(C)cc1C do in these assays?
ClpP mod: -1.8%; TRPML1 inh: 4; gsp ag: -16%; TRPV1 potentiator: 6; Menin-MLL FL inh: 2.4; Sfp inh: -16%; gsp antag: -12%

How did Fc1cc(F)cc(NC(=S)N2CCN(c3ncccn3)CC2)c1 do in these assays?
TRPML1 inh: 5; gsp ag: -16%; TRPV1 potentiator: 6; Menin-MLL FL inh: 0.2; Sfp inh: 11%; gsp antag: 7%

What do the screens show for `CNC(=O)CN(C1CCCCC1)S(=O)(=O)c1ccc(F)cc1`?
ClpP mod: 1.4%; TRPML1 inh: -4; gsp ag: -7%; TRPV1 potentiator: 12; Menin-MLL FL inh: -1.2; Sfp inh: 10%; gsp antag: 5%

How did O=C(NCc1nnnn1-c1ccc(F)c(F)c1)c1ccc2ccccc2c1 do in these assays?
TRPML1 inh: 10; gsp ag: 2%[15.4 µM]; TRPV1 potentiator: -7; gsp antag: -11%

What do the screens show for `O=C(CCNC(=O)c1ccccc1Cl)Nc1nc2ccccc2s1`?
TRPML1 inh: -25; gsp ag: 30%[15.4 µM]; TRPV1 potentiator: 9; Menin-MLL FL inh: -3.0; Sfp inh: 14%

How did Cc1nc(C(F)(F)F)ccc1C(=O)Nc1ccccc1F do in these assays?
ClpP mod: -0.8%; TRPML1 inh: -14; gsp ag: -8%[15.4 µM]; TRPV1 potentiator: -36; Menin-MLL FL inh: -0.5; Sfp inh: 12%; gsp antag: 10%

How did CCc1nnc(NC(=O)CSc2nccn2-c2cccc(C)c2)s1 do in these assays?
ClpP mod: -2.9%; TRPML1 inh: -9; gsp ag: -2%; TRPV1 potentiator: inconclusive; Menin-MLL FL inh: 2.6; Sfp inh: 6%; gsp antag: -7%

Results for CCCn1c(CCNc2nc(-c3ccc(OC)cc3)cs2)nc2ccccc21 ?
ClpP mod: -0.8%; TRPML1 inh: 25; TRPV1 potentiator: 9; Menin-MLL FL inh: -3.3; Sfp inh: -1%; gsp antag: -17%

How did CC1=NN(C(N)=S)C(=O)C1N=Nc1c(C)cc(C)cc1C (stereo not drawn) do in these assays?
ClpP mod: 5.5%; TRPML1 inh: 13; gsp ag: -40%[inhibitor]; TRPV1 potentiator: -9; Menin-MLL FL inh: -2.7; Sfp inh: -7%; gsp antag: 3%

How did CC1(C)CC(NC(=O)c2ccc(-c3ccc([N+](=O)[O-])cc3)o2)CC(C)(C)N1 do in these assays?
ClpP mod: -23%; TRPML1 inh: -11; gsp ag: -38%[inhibitor]; TRPV1 potentiator: 8; Sfp inh: -23%; gsp antag: -1%

What do the screens show for `Cc1cc(C)cc(N(CC(=O)NCc2ccc(F)cc2)C(=O)CCC(=O)Nc2ccccn2)c1`?
ClpP mod: -8.2%; TRPML1 inh: 12; gsp ag: 5%[15.4 µM]; TRPV1 potentiator: 17; Menin-MLL FL inh: 1.1; Sfp inh: 15%; gsp antag: -14%

What do the screens show for `Cc1ccc2c(COC(=O)c3ccccc3F)cc(=O)oc2c1`?
ClpP mod: -24%; TRPML1 inh: 3; gsp ag: 4%[15.4 µM]; TRPV1 potentiator: -2; Menin-MLL FL inh: 5.2; Sfp inh: 14%; gsp antag: -7%

What do the screens show for `COc1cc(-c2nnc(SCC(=O)NC3CCS(=O)(=O)C3)o2)cc(OC)c1OC` (stereo not drawn)?
TRPML1 inh: 6; gsp ag: -14%[15.4 µM]; TRPV1 potentiator: 3; Menin-MLL FL inh: -1.4; Sfp inh: 10%; gsp antag: 1%

How did O=Cc1ccccc1OCCOc1ccc([N+](=O)[O-])cc1 do in these assays?
ClpP mod: -0.7%; TRPML1 inh: 12; gsp ag: inconclusive; TRPV1 potentiator: -2; Menin-MLL FL inh: -3.5; Sfp inh: -8%; gsp antag: 9%

What do the screens show for `COC(=O)c1c(O)cc(C(C)(C)C)n(-c2ccc(F)cc2)c1=O`?
ClpP mod: -2.0%; TRPML1 inh: 76; gsp ag: inconclusive; TRPV1 potentiator: -7; Menin-MLL FL inh: 6.2; Sfp inh: 20%; gsp antag: -2%

How did CC(=O)Nc1ccc(S(=O)(=O)N2CCN(S(=O)(=O)N3CCC(C)CC3)CC2)cc1 do in these assays?
TRPML1 inh: -1; gsp ag: 6%; TRPV1 potentiator: 25; Menin-MLL FL inh: 0.4; Sfp inh: -11%; gsp antag: 14%

Results for O=C(c1ccccc1)c1sc(N2CCOCC2)nc1-c1ccccc1 ?
TRPML1 inh: 27; gsp ag: inconclusive; TRPV1 potentiator: -8; Menin-MLL FL inh: -1.4; Sfp inh: -8%; gsp antag: -23%

Results for Cc1cc(C(=O)OCC(=O)N2c3ccccc3NC(=O)C2(C)C)c(C)n1-c1ccccc1 ?
ClpP mod: -0.5%; TRPML1 inh: -5; gsp ag: 26%[15.4 µM]; TRPV1 potentiator: 1; Menin-MLL FL inh: 8.0; Sfp inh: -2%; gsp antag: -18%

What do the screens show for `Cc1cc(C)nc(SCc2nnc(SCc3ccccc3Cl)o2)n1`?
ClpP mod: -2.6%; TRPML1 inh: 10; gsp ag: -22%; TRPV1 potentiator: 17; Menin-MLL FL inh: 1.1; Sfp inh: 1%; gsp antag: inconclusive

What do the screens show for `O=C(CSc1nc2ccccc2[nH]1)Nc1cc(C(F)(F)F)ccc1N1CCOCC1`?
ClpP mod: -0.1%; TRPML1 inh: 17; gsp ag: 25%; TRPV1 potentiator: -17; Menin-MLL FL inh: 1.2; Sfp inh: 12%; gsp antag: 9%

Among those listed so far, three have a Cl atom:
How did COc1c(Cl)cc(Cl)cc1C(=O)n1nc(C)cc1C do in these assays?
ClpP mod: -1.8%; TRPML1 inh: 4; gsp ag: -16%; TRPV1 potentiator: 6; Menin-MLL FL inh: 2.4; Sfp inh: -16%; gsp antag: -12%

What do the screens show for `O=C(CCNC(=O)c1ccccc1Cl)Nc1nc2ccccc2s1`?
TRPML1 inh: -25; gsp ag: 30%[15.4 µM]; TRPV1 potentiator: 9; Menin-MLL FL inh: -3.0; Sfp inh: 14%

What do the screens show for `Cc1cc(C)nc(SCc2nnc(SCc3ccccc3Cl)o2)n1`?
ClpP mod: -2.6%; TRPML1 inh: 10; gsp ag: -22%; TRPV1 potentiator: 17; Menin-MLL FL inh: 1.1; Sfp inh: 1%; gsp antag: inconclusive

The list goes on:
How did O=C(c1cnn(C(=O)c2ccco2)c1)c1cc(Cl)cc(Cl)c1O do in these assays?
ClpP mod: -1.7%; TRPML1 inh: 4; gsp ag: 21%; gsp antag: inconclusive

Results for COc1ccccc1N1CCN(C(=O)c2ccc(NS(=O)(=O)c3ccc(C)cc3)cc2)CC1 ?
TRPML1 inh: 20; gsp ag: -11%; TRPV1 potentiator: 15; Menin-MLL FL inh: -6.6; Sfp inh: -3%; gsp antag: 3%

How did CCCCOP(=O)(c1ccc(N(C)C)cc1)C(O)c1ccccc1F (stereo not drawn) do in these assays?
ClpP mod: -9.3%; TRPML1 inh: 4; gsp ag: 9%; TRPV1 potentiator: -13; Menin-MLL FL inh: -0.9; Sfp inh: -9%; gsp antag: 4%

What do the screens show for `CN(C)CCNCc1ccc(OC2CCCC2)cc1`?
ClpP mod: -2.1%; TRPML1 inh: -6; gsp ag: 9%; TRPV1 potentiator: 18; Menin-MLL FL inh: 0.9; Sfp inh: -2%; gsp antag: 2%

Results for CN(C)/C=C/C(=O)c1ccc2noc(-c3ccccc3)c2c1 ?
TRPML1 inh: -15; gsp ag: 8%; TRPV1 potentiator: -1; Menin-MLL FL inh: -5.1; Sfp inh: -1%; gsp antag: inconclusive

How did COc1ccc(-c2nc3ccccc3s2)cc1O do in these assays?
ClpP mod: -14%; TRPML1 inh: -14; gsp ag: inconclusive; TRPV1 potentiator: 16; Menin-MLL FL inh: 7.4; Sfp inh: -7%; gsp antag: -4%

Results for O=CN1CC(=O)N(c2ccccc2)c2c([nH]c3ccccc23)C1 ?
ClpP mod: -1.0%; TRPML1 inh: -1; gsp ag: 1%; TRPV1 potentiator: 2; Menin-MLL FL inh: 6.9; Sfp inh: -5%; gsp antag: 11%

How did O=C(Nc1ccc(-c2nc3ccccc3o2)cc1)c1ccc2c(c1)OCO2 do in these assays?
ClpP mod: 32µM*; TRPML1 inh: -8; gsp ag: 8%; TRPV1 potentiator: -11; Menin-MLL FL inh: 1.6; Sfp inh: -5%; gsp antag: 5%

Results for CCC(=O)Nc1ccc(-c2nnc(SCc3ccc(C(=O)Nc4nccs4)cc3)n2CC)cc1 ?
ClpP mod: 8.9%; TRPML1 inh: 34; gsp ag: 10%; Menin-MLL FL inh: 2.6; Sfp inh: 5%; gsp antag: inconclusive

Results for O=C(CSc1nnc(NC(=O)C2CC2)s1)Nc1ccccc1C(F)(F)F ?
TRPML1 inh: 20; gsp ag: 10%[15.4 µM]; TRPV1 potentiator: inconclusive; Menin-MLL FL inh: -1.7; Sfp inh: 10%; gsp antag: 1%

What do the screens show for `NS(=O)(=O)c1ccc(Nc2ccc3cc(S(=O)(=O)N4CCCCC4)ccc3n2)cc1`?
ClpP mod: 4.2%; TRPML1 inh: 3; gsp ag: 16%; TRPV1 potentiator: 4; Sfp inh: 8%; gsp antag: inconclusive

What do the screens show for `Cc1cnc(NC(=O)c2cc3ccccc3o2)s1`?
TRPML1 inh: -3; gsp ag: -9%; TRPV1 potentiator: -12; Menin-MLL FL inh: -2.4; Sfp inh: 9%; gsp antag: -2%

Results for CCOc1ccc(-c2noc(CCC(=O)NC)n2)cc1OCC ?
ClpP mod: -0.9%; TRPML1 inh: 5; gsp ag: -4%; TRPV1 potentiator: -15; Menin-MLL FL inh: -5.1; Sfp inh: 10%; gsp antag: 5%

Results for COc1ccc(CCC(=O)NCCS(=O)(=O)N2CCN(c3ccc(OC)cc3)CC2)cc1 ?
ClpP mod: -1.5%; TRPML1 inh: 10; gsp ag: inconclusive; TRPV1 potentiator: 5; Menin-MLL FL inh: -4.2; Sfp inh: 22%; gsp antag: -12%

Source: PubChem BioAssay (National Center for Advancing Translational Sciences (NCATS))
